SARS PLpro yeast = qHTS of Yeast-based Assay for SARS-CoV PLP. S. cerevisiae expressing SARS-CoV PLpro, growth rescue; control for the full effect not named in the record. Potency, µM (series often up to 32.9 µM), inactives show top-dose activity, positive = growth rescue. 0.19% of 330,000 active; active means well fitted rising curve with a large enough effect; inconclusive means small, poorly fitted or top-dose-only effect; inactive means no such curve, though single readings can be large or run the other way; also: 0% is about no effect; nearly all actives have a fitted effect of over 55% in size; growth read by luminescence after 48 h
StopGo reporter = High Throughput Screening for Foot and Mouth Disease Virus Antivirals. 1.2% of 410,000 active. human cells with a luciferase reporter of 2A StopGo recoding; control for the full effect not named in the record. Potency, µM (top dose mostly 57.9 µM), for inactives: top-dose signal change, negative = less light; active = well fitted falling curve with a large enough effect; inconclusive = small, poorly fitted or top-dose-only effect; inactive = no such curve, though single readings can be large or run the other way; tested in HEK293T cells; also: % is scaled to controls: 0 for no effect and ±100 for the full control effect; nearly all actives have a fitted effect of over 45% in size; luciferase light after 4 h
NS1 inh = qHTS Assay for Inhibitors of Influenza NS1 Protein Function; Potency, µM (top dose mostly 46.1 µM), for inactives: at the highest dose activity, positive = more growth; 0.4% of 270,000 active; S. cerevisiae slowed by influenza A NS1, growth recovery by OD600; active means well fitted rising curve with a large enough effect; inconclusive means small, poorly fitted or top-dose-only effect; inactive means no such curve, though single readings can be large or run the other way; also: nearly all actives have a fitted effect of over 50% in size
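In this qHTS, NS1 from influenza A is expressed in budding yeast, where it slows growth. Cells are switched from glucose to 2% galactose medium (pH 6.0, -URA), treated with compound, and growth recovery is read at OD600.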
Cruzain inh Det = qHTS Assay for Promiscuous and Specific Inhibitors of Cruzain (with detergent); Cruzipain (Trypanosoma cruzi), P25779; purified cruzain, Z-FR-AMC fluorescence, 0.01% Triton; Potency, µM, for the others: max response, negative = inhibition, actives largely listed as inhibitors; 0.43% of 200,000 active;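 also: plate controls were neutral wells for no effect and buffer without enzyme for full effect; nearly all actives have a fitted effect of over 40% in size; top concentration of the series not given in the record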
Target sequence (P25779 123-467 limits assumed): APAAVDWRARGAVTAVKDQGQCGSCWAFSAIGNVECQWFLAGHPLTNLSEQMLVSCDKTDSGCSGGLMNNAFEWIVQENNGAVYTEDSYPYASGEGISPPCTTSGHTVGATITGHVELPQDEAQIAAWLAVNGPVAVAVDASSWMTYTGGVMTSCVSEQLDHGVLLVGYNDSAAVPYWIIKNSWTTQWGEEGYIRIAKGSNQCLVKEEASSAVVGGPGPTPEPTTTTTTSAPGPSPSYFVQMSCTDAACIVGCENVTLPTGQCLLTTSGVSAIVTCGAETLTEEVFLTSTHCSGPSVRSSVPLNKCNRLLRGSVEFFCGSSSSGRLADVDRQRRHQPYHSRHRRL
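Cruzain (1.5 nM) preincubated 15 min at RT with compound in 100 mM sodium acetate pH 5.5, 5 mM DTT, 0.01% Triton X-100. Reaction started with 2 uM Z-FR-AMC; AMC fluorescence (ex 360/em 450 nm) change over 60 s gave rate.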
Lassa entry inh = qHTS for Inhibitors of binding or entry into cells for Lassa Virus | AID 540256, 2011 | 1.2% of 300,000 active | Potency, µM (doses to about 37.9 µM), for inactives: at the top dose activity change, negative = inhibition, actives largely listed as inhibitors | Lassa virus pseudotype entry inhibition, cell reporter; control for the full effect not named in the record; active means well fitted inhibition curve with a large enough effect; inconclusive means small, poorly fitted or top-dose-only effect, or effect the other way; inactive means flat fitted curve, though single readings scatter; tested in HEK293 cells; also: % is scaled to controls: 0 for no effect and ±100 for the full control effect; nearly all actives have a fitted effect of over 50% in size; luciferase read-out
Cruzain inh noDet = qHTS Assay for Promiscuous and Specific Inhibitors of Cruzain (without detergent); Cruzipain (Trypanosoma cruzi), P25779; purified cruzain, Z-FR-AMC fluorescence, no detergent; Potency, µM, for inactives: max response, negative = inhibition, actives largely listed as inhibitors; 2.3% of 200,000 active;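 also: plate controls were enzyme without inhibitor for no effect and buffer without enzyme for full effect; nearly all actives have a fitted effect of over 40% in size; top concentration of the series not given in the record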
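Detergent-free condition (0.00005% Triton X-100) in acetate buffer pH 5.5 with DTT. 1.5 nM enzyme and compound were pre-mixed 15 min, then 2 uM Z-FR-AMC substrate added; reaction progress from fluorescence change between first and third reads (60 s).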
MARV entry inh = qHTS for inhibitors of binding or entry into cells for Marburg Virus. Marburg virus pseudotyped entry inhibition, cell reporter; control for the full effect not named in the record; about a third of the inactives were read at about 46 µM. 1.8% of 300,000 active. Potency, µM (series often up to 37.8 µM), inactives show top-dose activity change, negative = inhibition, hits mostly inhibitors; active = well fitted inhibition curve with a large enough effect; inconclusive = small, poorly fitted or top-dose-only effect, or effect the other way; inactive = flat fitted curve, though single readings scatter; tested in HEK293 cells; about a fifth of its hits are not listed in these tables; also: % is scaled to controls: 0 for no effect and ±100 for the full control effect; luciferase read-out
RE007 growth inh = qHTS Assay for Inhibitors of the HIV-1 protein Vpr | S. pombe RE007 Vpr strain, BacTiter-Glo ATP luminescence, 24 h; control for the full effect not named in the record | Potency, µM (series often up to 92.2 µM), without a hit: at the top dose activity change, negative = less growth | 0.21% of 360,000 active; active = well fitted falling curve with a large enough effect; inconclusive = small, poorly fitted or top-dose-only effect; inactive = no such curve, though single readings can be large or run the other way;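 also: % is scaled to controls: 0 for no effect and ±100 for the full control effect; nearly all actives have a fitted effect of over 50% in size; the assay follows cell death caused by Vpr and the record does not say whether a fall means rescue or toxicity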
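Fission yeast strain RE007, carrying one chromosomally integrated HIV-1 vpr copy, was seeded at OD 0.01 in PMG+AL medium with 23 nL pinned compound. After 24 h at 30 °C and 99% humidity, viability was read by BacTiter-Glo luminescence.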
Numbers without * were called inactive; ? = inconclusive; · = no result given; & = joins results of further samples; [ ] = dose if it differs, or a comment. Unless noted, calls follow the shape of the dose curve; as a rule, active = well fitted curve in the direction sought with a large enough effect; inconclusive = small, poorly fitted or top-dose-only effect, or another doubt; inactive = no such curve, though single readings can be large; an effect the other way counts as inactive or inconclusive. Potency is read from the fitted curve at half-maximal effect.

mol | SARS PLpro yeast | StopGo reporter | NS1 inh | Cruzain inh Det | Lassa entry inh | Cruzain inh noDet | MARV entry inh | RE007 growth inh
CC(Oc1ccccc1)C(=O)OCC(=O)NC(=O)NCc1ccco1 (stereo unspecified) | -11% | -3% | -16% | -1.7% | 12% | 4% | -1% | 1%
CCOc1ccc(-c2nnc(SCC(=O)NC3CCCCC3)nc2-c2ccc(OCC)c(OC)c2)cc1OC | · | -6% | · | -2.3% | ? | -7% | · | ·
Cc1c(-c2ccc(Cl)cc2)[n+](=O)c(-c2ccccc2)cn1[O-] | 1% | 10% | 0% | · | · | · | · | 0%
Nc1ccn(-c2ccccc2)c(=O)c1 | 2% | 5% | 12% | 1.6% | 6% | -4% | 12% | 3%
C=CCSc1nc2ccccc2n2cnnc12 | 1% | 0% | -52% | · | · | · | · | 5%
COc1ccc(C(=O)C2CCN(S(=O)(=O)c3ccc4c(c3)OCCO4)CC2)cc1 | -1% | -22% | ? | -2.5% | -3% | -22% | ? | 16%
O=C(CNc1ccc(Cl)cc1)c1ccc(Br)cc1 | 2% | 28% | · | · | -16% | · | 18% | 1%
CN(C(=O)c1ccc(C#N)cc1)c1nnc(-c2ccccn2)s1 | 10% | 27% | 9% | -0.2% | ? | 3% | 13% | 0%
Cc1cc(C)n(-c2ccc3nncn3n2)n1 | 1% | 15% | 4% | · | 10% | · | 3%[46.1 µM] | -1%
CC1CCN(Cc2ccc(NC(=O)CC3Oc4ccccc4NC3=O)cc2)CC1 (stereo unspecified) | 3% | -16% | -14% | 4.4% | · | -8% | -3% | 2%
Cc1ccc(NC(=O)c2ccc(CNS(=O)(=O)c3ccc4c(c3)C(C)(C)C(=O)N4C)cc2)cc1C | · | 35µM* | · | -3.3% | ? | 14% | · | ·
CCCCC(CC)CNC(=O)CCS(=O)(=O)c1cccc2nsnc12 (stereo unspecified) | 1% | -11% | 4% | -3.7% | ? | 5% | -1% | 25%
CN(C)c1nc(N)nc(CSc2nnnn2-c2ccccc2)n1 | -11% | -22% | 0% | 1.5% | 1% | 1% | 0% | -6%
CCn1c(-c2csc(C(C)C)c2)n[nH]c1=S | -3% | -20% | -46% | -15% | 16% | 2% | 12% | 14%
O=C(Nc1ncc(Cc2ccc(SC(F)F)cc2)s1)c1ccc(OC(F)F)cc1 | 4% | ? | 17% | -2.9% | ? | 20µM* | 5.6µM* | 11%
O=S(=O)(Nc1nnc(C2CC2)s1)c1ccccc1 | 2% | -6% | -2% | · | · | · | · | 9%
COc1ccc2[nH]c(=O)c(COC(=O)c3ccco3)cc2c1 | 6% | -2% | 8% | 0.4% | ? | ? | -3% | 13%
Cc1c(-c2cccc(Cl)c2)nc2ccccc2c1C(=O)OC/C(O)=C(\C#N)c1nc2ccccc2[nH]1 | 1% | -25% | · | · | 4% | · | ? | -4%
CC(C)(C)n1nc2c(c1NC(=O)c1ccc(Br)o1)CS(=O)C2 (stereo unspecified) | 6% | -9% | 0% | 0.7% | -1% | -8% | 0%[46.1 µM] | 9%
Cc1cc2c(cc1S(=O)(=O)CCC(=O)N1CCN(c3ccccc3)CC1)OCC(=O)N2 | · | -14% | · | -6.8% | 8%[46.1 µM] | 10% | · | ·
Cc1cc(-c2nnc(SCC(=O)Nc3c(C)cccc3C)n2N)n[nH]1 | 0% | 26% | 0% | · | ? | · | -19%[46.1 µM] | 1%
CCOc1cc(CN2CCOCC2)cc(C(C)=O)c1 | 1% | -7% | -6% | 1.4% | 22% | 0% | -1% | -14%
CCOC(=O)c1ccc(NC(=O)CSc2nc3c(c(=O)n2CC)SC(C)C3)cc1 (stereo unspecified) | -20% | 0% | -50% | -1.5% | · | 10% | · | 17%
COc1ccc(N(CC(=O)N/N=C/c2ccc(OC3CSC3)cc2)S(=O)(=O)c2ccccc2)cc1 | -21% | -19% | ? | -3.8% | ? | ? | ? | 19%
Nc1nc(NC(=O)c2cccnc2)nn1-c1ccccc1 | 2% | 16% | -1% | -0.1% | 10% | 18% | 5% | -1%
CC(C)NC(=O)c1ccccc1NC(=O)CCS(=O)(=O)Cc1ccccc1 | -1% | · | 0% | -0.4% | ? | 2% | 11% | 2%
CCc1ccc(S(=O)(=O)c2cn(C)c3cc(F)c(F)cc3c2=O)cc1 | · | 0% | · | 1.9% | -22%[46.1 µM] | -7% | -13%[46.1 µM] | ·
Cc1nc(SCC(O)CO)c([N+](=O)[O-])[nH]1 (stereo unspecified) | -6% | 14% | 1% | -2.0% | -1% | 11% | 8%[46.1 µM] | 2%
Cn1c(SCC(=O)c2ccccc2)nnc1-c1cccc(N)c1 | 11% | 26% | 3% | 0.9% | 2% | -3% | ? | -6%
O=[N+]([O-])c1ccc(Cl)cc1C=NNc1ccccn1 | · | 15% | · | · | ? | · | -2% | 5%
Cc1ccc(SCC(=O)NCCN2C(=O)CSC2=O)c(C)c1 | 27% | -19% | 2% | -1.2% | -3% | -15% | 14%[46.1 µM] | 25%
CCOc1ccccc1NC(=O)N1CCC(NC(=O)C2CCCCC2)CC1 | 3% | -9% | 3% | · | -5%[46.1 µM] | · | -4%[46.1 µM] | 12%
Cc1ccc(-n2c(N)c(-c3nc4ccccc4n3C)sc2=S)cc1 | 3% | 25% | -94% | 2.0% | -2% | -20% | ? | -5%
CCC1=NN(C(=O)c2cccnc2)C(O)(C(F)(F)F)C1 (stereo unspecified) | -1% | -17% | -2% | -0.8% | -1% | 0% | -11% | -1%
COc1ccc(C2C/C(=N\O)C(C)(C)O2)cc1 (stereo unspecified) | 4% | -12% | 9% | 3.9% | 0% | -2% | 0% | -5%
C=CCn1c(SCC(=O)Nc2cc(C)on2)nc2sc3c(c2c1=O)CCCC3 | 7% | -4% | 3% | -1.5% | -17% | -2% | 2% | 5%
CC(C)CNS(=O)(=O)c1ccc(Br)cc1N1CCC[C@@H]1CO | -1% | 47%[activator] | · | · | · | · | 1% | -2%
CCc1ccc(NC(=O)c2cc(CN3CCOCC3)on2)cc1 | · | -3% | · | -2.2% | 24%[46.1 µM] | 6% | · | ·
Cc1ccc(Nc2nc(N)nc(CN3CCN(Cc4ccc5c(c4)OCO5)CC3)n2)cc1Cl | 7% | ? | 17% | 3.4% | -19% | 6% | ? | 4%
COc1ccc(CN2CCC(C(N)=O)CC2)cc1OCc1ccccc1 | 11% | -1% | 6% | · | · | · | · | -13%
COc1cc(C(=O)N2CCN(C(=O)CC(C)C)CC2)cc(OC)c1OC | -1% | 22% | 7% | 4.4% | 9% | -4% | 3% | 14%
O=C(NC1CCOc2ccccc21)c1ccccn1 (stereo unspecified) | 1% | -2% | -2% | · | 15%[46.1 µM] | · | 8%[46.1 µM] | 64%
CCOc1ccc2c(O)csc2c1 | 6% | -16% | -16% | -1.4% | 8% | -21% | ? | -14%
Cc1cc2c(cc1C)-c1nnnn1C(C)(C)C2 | -9% | 0% | 1% | 7.4% | 2% | -2% | 28% | 0%
O=C(CSc1nnc(-c2ccc(C(F)(F)F)cn2)s1)c1ccc(Cl)cc1 | -1% | -4% | -4% | · | 12%[46.1 µM] | · | 5%[46.1 µM] | -10%
COC(=O)CNC(=O)CCCCC(=O)NCC(=O)OC | 2% | -20% | -1% | 3.8% | 18% | -11% | 6% | 1%
CN(Cc1ccccc1)c1nc2c(c(=O)[nH]c(=O)n2C)n1Cc1ccccc1 | -4% | ? | -4% | -2.5% | -24% | -5% | -6% | -3%
Cc1c(CC(=O)NCCC(=O)O)c(=O)oc2cc3occ(-c4ccccc4)c3cc12 | 1% | 11% | 8% | · | 25%[46.1 µM] | · | 13%[46.1 µM] | 5%
Cc1cc2c(cc1S(=O)(=O)N(CCN(C)C)Cc1ccco1)OCC(=O)N2 | · | 7% | · | 4.5% | -10%[46.1 µM] | 17% | · | ·
CCOC(=O)C(C)Sc1nc2c(cnn2-c2ccc(F)cc2)c(=O)[nH]1 (stereo unspecified) | 0% | -2% | 0% | · | 1%[46.1 µM] | · | ? | -10%
COc1ccc(C)cc1NC(=O)CCN1CCN(c2ccccc2F)CC1 | 1% | -7% | -12% | · | · | · | · | -13%
N#C/C(=C\c1c(Oc2ccccc2Cl)nc2ccccn2c1=O)C(=O)NC1CCS(=O)(=O)C1 (stereo unspecified) | 2% | ? | 4% | · | -29%[46.1 µM] | · | ? | -4%
CN1OC(COC(=O)c2ccc(Cl)cc2Cl)CC1c1ccccc1 (stereo unspecified) | -17% | 19% | 3% | -4.8% | -22% | 7% | 15% | ?
O=C(/C=C/c1ccccc1[N+](=O)[O-])NCc1cccnc1 | 17% | -12% | -5% | 4.8% | 1% | 4% | 33% | -3%
C[n+]1cccc(/C=N/NC(=O)CC23CC4CC(CC(C4)C2)C3)c1 | -2% | -12% | -31% | · | 2%[46.1 µM] | · | 11%[46.1 µM] | ?
CCN1C(=O)/C(=C\N(C)C)NC1=S | 7% | -6% | 12% | -7.9% | 1%[46.1 µM] | 6% | 19%[46.1 µM] | 9%
c1coc(CNc2ncnc3[nH]ncc23)c1 | 2% | 0% | 16% | · | -27%[46.1 µM] | · | ? | -13%
COc1ccc(OC)c(N2C(=O)CC(Cc3ccc(C)cc3)C2=O)c1 (stereo unspecified) | -6% | -1% | -7% | 6.2% | 14% | 8% | 23% | -3%
COc1ccccc1NC(=O)CSc1nnc(NC(=O)C2CC2)s1 | -3% | -12% | 5% | · | -24% | · | 7%[46.1 µM] | -8%
COCCc1nc2ccc(C(=O)N(C)Cc3cccc(-n4nc(C)cc4C)c3)cc2o1 | -1% | 3% | 5% | · | 14% | · | 1% | 1%
CN(CCO)S(=O)(=O)c1ccc2c(c1)C(=NO)c1cc(S(=O)(=O)N(C)CCO)ccc1-2 | 0% | -20% | 2% | · | 18%[46.1 µM] | · | -33%[46.1 µM] | 5%
CC1(C)CC(=O)c2cc(OCC(=O)NCCCN3CCN(c4ccccc4F)CC3)ccc2O1 | 7% | -20% | -10% | -2.0% | ? | -5% | 2%&-13% | -9%

Assay outcomes as filed in PubChem BioAssay.
